AmpC inh no det = Promiscuous and Specific Inhibitors of AmpC Beta-Lactamase (assay without detergent); AmpC nitrocefin hydrolysis, absorbance 480 nm, no detergent; potencies from a single point are estimates; Potency, µM (titrated, usually from 28.7 µM), without a hit: at the top dose activity change, negative = inhibition; 71,000 compounds, 1.8% hits; active = falling curve, for most hits resting on a single point; inconclusive = weak or doubtful change; inactive = flat or rising curve; note: % of control where 0% means no effect; about half of the hits show no inhibition at the top dose; a quarter of the inactives give rising signals
Target sequence (P00811 whole entry, looked up): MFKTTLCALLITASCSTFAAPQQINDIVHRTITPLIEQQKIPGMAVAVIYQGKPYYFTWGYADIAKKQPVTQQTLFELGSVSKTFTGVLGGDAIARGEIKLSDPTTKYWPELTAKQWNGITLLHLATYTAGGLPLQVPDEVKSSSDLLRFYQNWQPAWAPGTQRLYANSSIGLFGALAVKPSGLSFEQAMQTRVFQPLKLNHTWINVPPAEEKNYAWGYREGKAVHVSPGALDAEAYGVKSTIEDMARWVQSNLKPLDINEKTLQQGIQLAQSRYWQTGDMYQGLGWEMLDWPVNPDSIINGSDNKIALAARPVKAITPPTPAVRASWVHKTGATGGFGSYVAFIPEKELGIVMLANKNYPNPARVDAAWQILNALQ
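AmpC, 20 mM phosphate pH 7.0; 15 min cpd preinc, RT; start with nitrocefin (800 uM stock); A480 kinetic read, 20 s intervals, 4 min. No-enzyme wells = negative control.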
The depositor's hits bear a star; ? = inconclusive; & = joins results of further samples; [ ] = another dose, or the depositor's remark. Potency is the fitted concentration of half-maximal effect. A portion of the library; the hit share may differ from the screen's.

SMILES	AmpC inh no det
O=S(=O)(c1ccc2oc3ccc(S(=O)(=O)N4CCCC4)cc3c2c1)N1CCCC1	12%
c1ccc(COc2cccc(CNn3cnnc3)c2)cc1	12%
CC(C)(C)c1cc(C#N)cc(Br)c1OP(=O)(Oc1c(Br)cc(C#N)cc1C(C)(C)C)c1ccccc1	-4%[5.75 µM]
Cc1ccc(Nc2cc(-n3nc(C)cc3C)ncn2)cc1	9%
Cc1cc(NC(=O)CN2C(=O)CC(c3ccco3)Sc3ccccc32)no1 (centres undefined)	20%
O=C(O)c1cccnc1C(=O)O	6%&-1%
CC1CCN(S(=O)(=O)c2ccc(S(=O)(=O)NCC(=O)C(C)(C)C)cc2)CC1	-1%
C(=N\C(/N=C/c1ccco1)c1ccco1)/c1ccco1	-16%
CCc1nnc(NC(=O)C2CC(=O)N(CCc3ccccc3)C2)s1 (centres undefined)	18%
C=CCn1c(-c2ccc(OC)cc2)nc2ccccc21	22%
CNC(=O)[C@H]1O[C@H](n2cnc3c(NCc4cccc(I)c4)nc(Cl)nc32)[C@@H](O)[C@@H]1O	140%
CCOc1ccc(S(=O)(=O)Nc2cccc(C(=O)N3CCN(c4ccc(OC)cc4)CC3)c2)cc1	15%
N#Cc1ccccc1S(=O)(=O)N1CCN(c2ccc(S(=O)(=O)N3CCOCC3)cn2)CC1	81%
COc1ccc(S(=O)(=O)NCC(=O)N(CC(=O)NCC2CCCO2)c2ccccc2C)cc1 (centres undefined)	53%
NCCCCNS(=O)(=O)c1cccc2c(Cl)cccc12	19%
Cc1ccc(S(=O)(=O)NCCSc2nnnn2C)cc1	16%
CCOc1ccc(C2C(C(=O)c3ccco3)=C(O)C(=O)N2CCCn2ccnc2)cc1 (centres undefined)	-7%
COc1ccc(OC)c(S(=O)(=O)Nc2ccc(C(N)=O)cc2)c1	-6%
Cc1oc(-c2cccc(Cl)c2)nc1CN1CCC(C(=O)NCc2cccnc2)CC1	68%
FC(F)(F)c1cc(-c2ccc3c(c2)OCO3)nc(NCc2ccco2)n1	-14%
O=C1CC(C(=O)Nc2ccccc2C(=O)O)C(c2ccccc2)O1 (centres undefined)	-9%
COc1ccc(S(=O)(=O)Nc2c(C)n(C)n(-c3ccccc3)c2=O)cc1	3%
CC(C)N1C[C@@]23C=C[C@@H](O2)C(C(=O)OCc2ccccc2)[C@H]3C1=O (some centres undefined)	-2%
Cc1cccc(N(CC(=O)NCC2CCCO2)C(=O)CCC(=O)Nc2cc(C)on2)c1 (centres undefined)	36%
Cc1occc1C(=O)N1CCN(c2ncccn2)CC1	13%
Cc1cccc(-c2c3c(=O)n(C)c(=O)n(C)c3c3nnc4ccccc4n23)c1	-8%
Cc1cccnc1NC(=O)Nc1ccc(F)cc1	15%
COc1ccc(NC(=O)c2oc3ccccc3c2NC(=O)C2CC2)cc1	10%
CCSc1ccccc1C(=O)N1CCN(c2ccccc2F)CC1	46%
COC(=O)c1ccccc1	-14%
COc1ccc(-c2nc(N)nc(C)c2Oc2ccccc2Br)c(O)c1	-23%
COc1ccc(-c2noc(CN3CCN(c4ccccc4F)CC3)n2)cc1OC	106%
O=C(Nc1ccc2c(c1)OCCO2)c1ccccc1F	-8%
O=C1CSC(=O)N1CCOCCN1C(=O)CSC1=O	-12%
CCc1cccc(NC(=O)Cn2cc3c(n2)CCCC3)c1	-5%
Cc1cc(C)c2c(SCc3ccc(Cl)cc3Cl)nc(N)nc2n1	25%[5.75 µM]
CC(=O)c1sc(-c2c(C)nc3sccn23)nc1C1CCCC1	0%
COc1ccc(Cl)cc1NC(=O)N1CCN(S(C)(=O)=O)CC1	0%
O=C1c2oc3ccc(Cl)cc3c(=O)c2C(c2ccco2)N1CCN1CCOCC1 (centres undefined)	36%
C=CCn1c(CCCNC(=O)CCC)nc2ccccc21	14%
O=C(c1ccc(NC(=O)C2(c3ccccc3)CCOCC2)cc1)N1CCOCC1	25%
CSCCC(NC(N)=O)C(=O)N(C)CC(=O)Nc1ccc(C)cc1 (centres undefined)	7%
CCOC(=O)CCc1c(C)nc(SCCN2CCCC2)c(C#N)c1C	0%
Oc1c(Cl)cc(CN(Cc2cc(Cl)c(O)c(Cl)c2)C2CCCCC2)cc1Cl	-24%[5.75 µM]
CCCSc1nnc2nc(C)cc(C)n12	1%

Reprinted at random: 6 records from the list.
SMILES	AmpC inh no det
COc1ccc(-c2nc(N)nc(C)c2Oc2ccccc2Br)c(O)c1	-23%
O=C(Nc1ccc2c(c1)OCCO2)c1ccccc1F	-8%
O=C1c2oc3ccc(Cl)cc3c(=O)c2C(c2ccco2)N1CCN1CCOCC1 (centres undefined)	36%
COc1ccc(Cl)cc1NC(=O)N1CCN(S(C)(=O)=O)CC1	0%
O=C1CSC(=O)N1CCOCCN1C(=O)CSC1=O	-12%
COc1ccc(-c2noc(CN3CCN(c4ccccc4F)CC3)n2)cc1OC	106%

Carrying on:
SMILES	AmpC inh no det
O=C(C1CCN(S(=O)(=O)c2ccc(F)cc2)CC1)N1CC=C(c2ccccc2)CC1	66%
Cc1cccc(C)c1NC(=O)CC(NCc1ccco1)C(=O)O (centres undefined)	-8%
O=C(O)c1ccc2c(c1)N(Cc1ccccc1F)C(=O)c1ccccc1S2=O (centres undefined)	-4%
COc1ccccc1CNC(=O)C(C)NS(=O)(=O)c1ccccc1 (centres undefined)	9%
Cc1cc(C)cc(C(=O)N(C)[C@H](Cc2ccc(-c3ccccc3)cc2)C(=O)N[C@@H](Cc2c[nH]c3ccccc23)C(=O)O)c1	154%
COc1ccc(S(=O)(=O)Nc2c(C(=O)O)[nH]c3ccccc23)c(OC)c1	-4%
COCCCNC(=O)c1c(-c2ccccc2)noc1C	7%
Cc1onc(-c2ccccc2Cl)c1C(=O)Nc1nn[nH]n1	-3%
CCn1c(SCc2cc(=O)[nH]c3ccccc23)nc2c1c(=O)n(C)c(=O)n2C	8%
CCOC(=O)C1=C(c2ccccc2)NC(=O)NC1c1ccc(N(C)C)cc1 (centres undefined)	9%
COCCCn1c(N)c(C(=O)OCCOC)c2nc3ccccc3nc21	24%
COCc1nc(-c2ccc(-c3ccc(C)cc3)nc2OC)no1	118%
CCc1cc2c(C)cc(=O)oc2cc1OC(=O)C1CCCN1C(=O)OC(C)(C)C (centres undefined)	100%
COc1cccc(NC(=O)c2ccccc2-c2nc(-c3ccc(Cl)cc3)no2)c1	-14%
COC(=O)[C@@H]1C[C@@]1(C)[C@@H](NP(=O)(c1ccccc1)c1ccccc1)c1ccccc1	107%

By substructure: the compounds so far with a cyano group (3)
SMILES	AmpC inh no det
CC(C)(C)c1cc(C#N)cc(Br)c1OP(=O)(Oc1c(Br)cc(C#N)cc1C(C)(C)C)c1ccccc1	-4%[5.75 µM]
N#Cc1ccccc1S(=O)(=O)N1CCN(c2ccc(S(=O)(=O)N3CCOCC3)cn2)CC1	81%
CCOC(=O)CCc1c(C)nc(SCCN2CCCC2)c(C#N)c1C	0%

Following part
SMILES	AmpC inh no det
CCc1ccccc1NC(=O)CSc1nnc([C@@H](NC(=O)OC(C)(C)C)C(C)C)o1	41%
COc1cccc(C2c3c(oc4cc(C)c(C)cc4c3=O)C(=O)N2CCCN(C)C)c1 (centres undefined)	82%
COc1cc(NC(=O)c2ccco2)c(OC)cc1NC(=O)CCC(=O)Nc1cc(C)cc(C)c1	85%
COC(=O)c1ccc(OC(=O)c2nn(C)cc2Cl)c(OC)c1	43%
Cn1c(SCc2cnc(-c3ccccc3)s2)nnc1C1COc2ccccc2O1 (centres undefined)	38%
C/C(N)=C(/C#N)C(=O)CSc1nc2ccc(C)cc2[nH]1	-17%
CC(C)(C)NC(=O)C(c1ccccc1)N(C(=O)c1ccco1)C1CC1 (centres undefined)	24%
CC(=O)N[C@H](Cc1ccc(O)cc1)C(=O)O	14%[5.75 µM]
O=C(c1ccc2c(c1)C(=O)N(Cc1ccco1)C2=O)N1CCOCC1	19%
CCCCCCN(C(=O)CCCCCN1C(=O)NC(c2ccc(-c3ccccc3)cc2)C(C(=O)OCc2ccccc2)=C1C)C(C(=O)NCCCC)c1cccc(C(=O)OC)c1 (centres undefined)	-14%
COc1ccccc1-c1c(C)oc2c(CN3CCN(CCO)CC3)c(O)ccc2c1=O	6%
Cc1ccc(C)c(NC(=O)C2CCC(C)(C(=O)O)C2(C)C)c1 (centres undefined)	3%
O=C(CSc1nnc(Cn2c(=O)sc3ccccc32)n1CCc1ccccc1)N1CCOCC1	137%
CCN(CC)S(=O)(=O)c1ccc(C(=O)OCCN2C(=O)CCC2=O)cc1	4µM*[single pt active]
CCCCNC(=O)c1ccc(NC(=O)C2CCCO2)cc1 (centres undefined)	-5%
O=C(/C=C\Nc1ccccn1)c1ccc(Cl)cc1	-24%
C=CCn1c(SCC(=O)NC(=O)NCC(C)C)nnc1C1CCCCC1	16%
CCOC(=O)c1ccc(NC(=O)CCNS(=O)(=O)c2ccc3c(c2)oc(=O)n3C)cc1	-1%
CCc1ccc(N(CC(=O)NC2CCCC2)S(=O)(=O)c2c(C)noc2C)cc1	20%
Oc1ccccc1N=Cc1ccc[nH]1	13%
CCOC(=O)Nc1cc(C(=O)OC)cc(C(=O)OC)c1	7%
CC(=O)NC(CCS(C)(=O)=O)C(=O)Nc1cc(C)ccc1C (centres undefined)	8%
COCCn1c(SCC(=O)c2ccc(Cl)cc2)nnc1C(C)C	32%
N#Cc1ccccc1NC(=O)c1ccccc1OCC(=O)Nc1ccc2c(c1)oc1ccccc12	?
CCC(C)(C)n1nnnc1C(c1cc2ccc(OC)cc2[nH]c1=O)N1CCN(C2CCCCC2)CC1 (centres undefined)	58%
CCOc1ccc(CNc2ccc(N3CCCC3)cc2)cc1	-8%
CC(=O)O[C@H]1C[C@H]2CC[C@@H]3[C@H]4C[C@@H]([N+]5(C)CCCCC5)[C@@H](OC(C)=O)[C@]4(C)CC[C@@H]3[C@@]2(C)C[C@@H]1[N+]1(C)CCCCC1	7%
Cc1cccc(-n2c(N)cc(=O)nc2SCC(=O)Nc2cc(C)on2)c1	-1%
COc1cccc(-c2cc(NCc3ccc(OC)cc3OC)ncn2)c1	70%
C=CCn1c(SCCC(=O)O)nnc1-c1cccs1	-1%
Cc1cc(C(=O)CSc2nnc(N)s2)c(C)n1CCc1ccc(F)cc1	-20%
CCOC(=O)N1CCN(C(=O)c2ccc(CS(=O)(=O)c3ccccc3OC)o2)CC1	25%
Cn1c(Cn2nnc3ccccc32)nnc1SCC(N)=O	1%
COc1cc(-c2ccc(N=C=O)c(OC)c2)ccc1N=C=O	-6%
CC1(C)NC(=O)N(c2ccc([N+](=O)[O-])c(C(F)(F)F)c2)C1=O	10%
CCOc1ccc(CCNC(=O)c2cccnc2N2CCCC2)cc1OCC	23%
O=C(CSc1nnc(-c2cccnc2)n1Cc1ccco1)N1CCc2ccccc21	73%
Cc1cc(N2CCC(N(C)C3CCCC3)CC2)nc2cc(O)ccc12	27%
O=C(Nc1ccc2c(c1)nc1n2CCSC1)c1ccco1	-10%
c1cncc(-c2nn3c(Cn4cnc5ccccc54)nnc3s2)c1	-1%
COc1nc(Nc2ccc(O)cc2)nc(OC(C(F)(F)F)C(F)(F)F)n1	-5%
CCC1CCCCN1C(=O)CSc1nnc(-c2cccs2)o1 (centres undefined)	19%
Oc1c(C(Nc2ccccn2)c2ccccn2)ccc2cccnc12 (centres undefined)	17%
N[C@H](Cc1ccc(O)c(I)c1)C(=O)O	8%
O=C(NCCCN1CCN(Cc2ccccc2)CC1)C1CCN(c2nnc(-n3cccc3)s2)CC1	102%
COC(=O)c1ccc(CN(c2ccccc2OC)S(=O)(=O)c2cccs2)o1	19%
CCNc1nc(NC(C)(C)C)nc(N(CC)n2cnnc2)n1	28%
COc1cccc2c(=O)n(CC(=O)NC3CCCCC3)ccc12	9%
CC(=O)[C@H](CC(C)C)NC(=O)[C@@H](CC(C)C)NC(=O)[C@H](CC(C)C)NC(=O)OCc1ccccc1	51%
CC(C)(C)c1cc(C(F)(F)F)nc(SCCCNC(=O)c2ccco2)n1	61%
CCCn1c(=O)c2ccccc2n2c(SCCOc3ccc(OC)cc3)nnc12	66%
CC1(C)[C@@H]2CC[C@@](C)(C2)[C@H]1OC(=O)c1ccccc1C(=O)O	1%[5.75 µM]
O=C1CC(c2nc3ccccc3[nH]2)CN1c1cccc(C(F)(F)F)c1 (centres undefined)	11%
CCC(C)Oc1cccc(C(=O)Nc2ccccc2N2CCOCC2)c1 (centres undefined)	25%
O=C(Cn1cccc1)N1CCc2ccccc21	-3%
CCOC(=O)C1CCN(c2c(N3CCCC(C(=O)OCC)C3)c(=O)c2=O)CC1 (centres undefined)	15%
O=C1c2ccccc2C(=O)N1Cc1nc2ccccc2c(=O)n1CCCN1CCOCC1	-8%
CS(=O)(=O)N(CC(=O)Nc1ccc2c(c1)OCCO2)Cc1ccccc1	2%
CCCc1nnc(NC(=O)CSc2ncn[nH]2)s1	1%
CC1(C)COC(Nc2ccc(Cl)cc2)=N1	-6%
Remaining list, next part.
SMILES	AmpC inh no det
CC(C)(C)NC(=O)C1CC(=O)OC12CCCCC2 (centres undefined)	10%
c1csc(-c2nn3c(-c4ccncc4)nnc3s2)c1	-8%
Cc1ncoc1C(=O)Nc1ccccc1C(N)=O	1%
Cc1ccccc1-c1nc(N2CCNCC2)c2ccccc2n1	5%
O=C1CC(c2cccc(Cl)c2)CC(O)=C1C=NCCCO (centres undefined)	11%
CC(=C1C(=O)c2ccccc2C1=O)N1CCN(c2ccccn2)CC1	5%
CC(NC(=O)C1CCCCC1)c1ccc2c(c1)OCCO2 (centres undefined)	-5%

Compounds from the list above with a thiophene ring, fused or not, in the order listed:
SMILES	AmpC inh no det
C=CCn1c(SCCC(=O)O)nnc1-c1cccs1	-1%
CCC1CCCCN1C(=O)CSc1nnc(-c2cccs2)o1 (centres undefined)	19%
COC(=O)c1ccc(CN(c2ccccc2OC)S(=O)(=O)c2cccs2)o1	19%
c1csc(-c2nn3c(-c4ccncc4)nnc3s2)c1	-8%
